Bfl-1 A1 inh: caspase 3/7 activation in MEF A1-2A-BIM cells, primary screen, A1 inhibitor project, cell-based, luminescence, HTS. Caspase-Glo 3/7 luminescence, 3 h; percent of clofoctol response, vehicle zero. caspase activation, % (concentration not given with the values). hit rate 0.066% among 330,000. AID 2462, 2010;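 active = over half of replicate activation scores above 10%, or exactly half above 10 with the replicate mean above 10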;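 note: wells of about 30 µL received 50 nL stock; many hits fall short of the cut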
Beta apoptosis: inhibitors of cytokine-induced beta cell apoptosis, primary screen, luminescence. hit rate 0.8% among 300,000. protection from apoptosis, % (test concentration not listed). INS-1E cytokine-induced death, ATP luminescence, 48 h; percent of positive-control rescue, neutral wells zero;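 active = all replicates at 75% or more, or half of them and the mean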;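 note: 0% = cytokine-treated negative control wells and 100% = positive control rescue; higher means more ATP so stronger rescue from cytokine killing; wells of about 40 µL received 100 nL stock; the first replicate is given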
UCH37 DUB inh: inhibitors of human UCH37 deubiquitinase, primary screen, biochemical, Ub-AMC cleavage, fluorescence; purified proteasome/UCH37; Ubiquitin carboxyl-terminal hydrolase isozyme L5 (Homo sapiens), Q9Y5K5; hit rate 0.33% among 330,000; inhibition, % (test concentration not listed); AID 588478, 2011;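 active = mean of two replicates above 20%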;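 note: 0% = compound-free wells with enzyme and 100% = wells lacking proteasome; stock transfer was 100 nL into about 20 µL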
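assay system = human UCH37 enzyme supplied as purified proteasome complex | amount = proteasome at 0.15 nM in the dispensed enzyme solution | schedule = 30 min compound-proteasome preincubation then 25 min substrate reaction, room temperature | measured by = fluorescence, ex 355 nm, em 460 nm | benchmarks = no-proteasome wells (full inhibition) and compound-free wells (no inhibition)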
rRNA inh HTS: reduced GFP signal of wild-type E. coli, primary screen, bacterial rRNA inhibitor project, GFP/RFP fluorescence, OD600, single point. E. coli WT GFP vs humanized-ribosome RFP mutants, 24 h; hits give low values; DMSO median 0, no signal -100. GFP signal change (wild-type ribosome), % (test concentration not listed). hit rate 1.6% among 350,000. AID 720706, 2013;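 active = significant combined selectivity score with lowered wild-type GFP, culture density cut under 30%, mutant RFP and density less affected; inactive = any of these conditions unmet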; note: one replicate is shown; some compounds called inactive have numbers as strong as hits
AF4-AF9 inh: inhibitors of AF4 peptide binding to AF9, primary screen, biochemical, AlphaScreen, biotin-AF4 peptide, FLAG-AF9, single point. inhibition, % at 10 µM. AID 651704, 2012. hit rate 0.47% among 350,000;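 active = every replicate reaching a set inhibition limit, whatever the replicate mean, cut at about 25% in these data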;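 note: 0% = plate neutral control median and 100% = total signal loss; the record names both 10 and 1 µM as test concentration; the first replicate is given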
Target sequence (P42568 whole entry, looked up): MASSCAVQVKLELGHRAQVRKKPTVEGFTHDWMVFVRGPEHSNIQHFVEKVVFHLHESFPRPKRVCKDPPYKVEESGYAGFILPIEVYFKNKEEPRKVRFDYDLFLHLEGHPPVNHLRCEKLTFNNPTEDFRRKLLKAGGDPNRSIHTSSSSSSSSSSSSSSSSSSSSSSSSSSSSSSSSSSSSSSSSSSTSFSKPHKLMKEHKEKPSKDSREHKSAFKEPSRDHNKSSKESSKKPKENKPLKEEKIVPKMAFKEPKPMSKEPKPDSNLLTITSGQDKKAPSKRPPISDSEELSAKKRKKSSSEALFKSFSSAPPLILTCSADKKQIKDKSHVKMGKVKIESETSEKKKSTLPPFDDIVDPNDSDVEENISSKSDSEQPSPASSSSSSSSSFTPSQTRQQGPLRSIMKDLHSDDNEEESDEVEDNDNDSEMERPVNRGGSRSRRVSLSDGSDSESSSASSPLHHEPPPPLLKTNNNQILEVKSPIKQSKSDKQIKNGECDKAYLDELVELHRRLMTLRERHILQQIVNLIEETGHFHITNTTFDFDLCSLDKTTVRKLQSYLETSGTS
FGF22 binding: binders of human FGF22 protein, primary screen, FGF22 synaptogenesis inhibitor project, biophysical, thermal shift, single point | Fibroblast growth factor 22 (Homo sapiens), Q9HCT0 | recombinant FGF22 thermal shift, SYPRO orange fluorescence; percent of sucrose octasulfate shift, DMSO zero | calls only at 9.99 µM | hit rate 1.5% among 340,000 | AID 651658, 2012;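 active = melting point raised past a set limit in the mean and every replicate; three in four hits are not shown here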
Target sequence (Q9HCT0 whole entry, looked up): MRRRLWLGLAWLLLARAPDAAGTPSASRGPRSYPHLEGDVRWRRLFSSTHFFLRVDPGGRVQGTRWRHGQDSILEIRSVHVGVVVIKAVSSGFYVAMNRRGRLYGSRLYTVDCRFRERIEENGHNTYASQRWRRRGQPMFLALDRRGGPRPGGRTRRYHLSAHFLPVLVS
Ecoli growth: E. coli growth inhibition, primary screen, OD600. Escherichia coli growth, 23 h; hits give low values. OD600 absorbance (test concentration not listed). hit rate 0.21% among 330,000. AID 1053175, 2014;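 active = OD600 absorbance below the run mean of sample wells minus 3.6 SD, in any replicate, cut at about 0.56 in these data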;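 note: stock transfer was 300 nL into about 60 µL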
T cruzi inh: inhibitors of intracellular T. cruzi growth, primary screen, luminescence, NIH3T3 host cells; T. cruzi beta-gal in NIH3T3, 90 h; inhibition, % (test concentration not listed); hit rate 1.4% among 300,000; AID 1885, 2009;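 active = mean inhibition across valid replicates above about 55%, limit read from the data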;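 note: signal also drops with host cell toxicity which is not excluded here; 0% = plate median of DMSO wells and 100% = zero luminescence signal; higher percent means less beta-gal luminescence so fewer parasites; stock transfer was 50 nL into about 50 µL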
rRNA inh HTS OD600: recorded beside rRNA inh HTS, whose call it bears; OD600 change, %; measured here: OD600 growth;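 optical density of the mix in the first replicate; 0 = DMSO median and -100 = no signal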
rRNA inh HTS RFP: second read-out of rRNA inh HTS, no call of its own (marks repeat the call); RFP signal change, %; measured here: RFP humanized mutant strains;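 first replicate; 0 = DMSO median and -100 = no signal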
Starred values were filed as active, the others as inactive; i = inactive; / = not tested or not shown; & = joins results of further samples.

Each structure is followed by: rRNA inh HTS RFP	T cruzi inh	UCH37 DUB inh	rRNA inh HTS	Bfl-1 A1 inh	Beta apoptosis	AF4-AF9 inh	rRNA inh HTS OD600	Ecoli growth	FGF22 binding
> CS(=O)(=O)c1ccc(Cl)c(NC(=O)c2cc(S(=O)(=O)N3CCOCC3)ccc2N2CCCC2)c1
  -0.7	8.4	0.3	-1.5	0.7	-1.9	-1.5	3.5	0.691	i
> CCC1(c2ccc(C)cc2)NC(=O)N(C(C)C(=O)Nc2ccc(N3CCOCC3)cc2)C1=O (stereo not given)
  1.7	/	2.6	-13.4	-0.1	-0.5	3.6	-3.5	0.694	i
> Cn1nc(C(=O)NCCc2ccc(S(N)(=O)=O)cc2)c2c1-c1ccccc1S(=O)(=O)C2
  -2.0	-12.4	1.6	-2.1	-1.5	/	1.8	-2.1	0.677	i
> COc1ccc(Br)cc1CN1CCCC(C(=O)N2CCCCC2)C1 (stereo not given)
  /	6.6	5.4	/	0.1	-6.1	/	/	0.716	/
> O=C(N/N=C/c1ccc([N+](=O)[O-])cc1)c1cccc(N2CCCC2=O)c1
  1.0	0.2	/	12.4	0.7	4.1	-0.6	8.6	/	i
> COc1cc(C)c(NC(=O)c2cccc(S(=O)(=O)N3CCCC3)c2)cc1OC
  /	/	3.7	/	1.7	1.8	0.4	/	0.673	i
> Cc1ccc(N(CC(=O)NCC2CCCO2)S(=O)(=O)c2ccc(Cl)cc2)cc1C (stereo not given)
  0.8	10.8	5.5	-8.0	0.4	1.6	-0.8	-10.8	0.707	i
> CCC(=O)N1CN(S(=O)(=O)c2ccc(C)cc2)CC1C (stereo not given)
  /	-2.8	-2.1	/	/	-5.2	/	/	0.666	/
> CCOP(=O)(OCC)C(NC(=O)c1cccs1)c1ccccc1 (stereo not given)
  -1.8	5.0	2.3	-2.8	0.2	-7.3	0.5	-1.3	0.696	i
> CCCCCN(C(=O)CSc1n[nH]c(-c2ccc(C)cc2)n1)c1c(N)n(CCCC)c(=O)[nH]c1=O
  2.1	-12.7	-0.4	-0.9	0.9	-4.1	-4.2	6.3	0.673	i
> CC1Cc2ccccc2N1C(=S)Nc1cccc(S(=O)(=O)N(C)C)c1 (stereo not given)
  8.9	-2.2	2.2	-2.2	1.0	-3.0	5.8	-10.9	0.689	i
> CCn1cc(C(=O)Nc2ccc3c(c2)OCCO3)c2cc(OC)c(OC)cc2c1=O
  9.4	-13.6	5.6	5.3	0.5	4.1	8.5	6.5	0.687	i
> Nc1c(C(=O)c2ccccc2)sc2nsc(SCCN3CCOCC3)c12
  -6.0*	13.9	3.3	-27.1*	-1.0	7.6	-1.8	-21.9*	0.722	i
> COc1cccc(C2Nc3ccccc3NC3=C2C(=O)CC(C)(C)C3)c1OC (stereo not given)
  8.1	-3.0	12.3	4.1	0.7	-2.7	0.4	-9.2	0.67	i
> O=C1CSc2ccc(S(=O)(=O)NCc3ccccc3)cc2N1
  3.7	-0.1	2.5	-1.9	-0.6	1.8	0.8	-6.3	0.668	i
> CCOc1cc(NC(=S)NCC2CCCO2)c(OCC)cc1NC(=O)c1ccccc1 (stereo not given)
  /	5.4	3.7	/	0.0	-3.7	/	/	0.747	/
> CCOC(=O)N1CCN(S(=O)(=O)CCNC(=O)c2ccc(F)cc2)CC1
  0.2	3.1	0.9	9.8	-0.1	-1.8	-2.0	14.4	0.698	i
> Cc1cccc(-n2nc3c(c2NC(=O)c2ccco2)CSC3)c1C
  /	1.4	1.2	/	-1.0	-3.4	/	/	0.768	/
> O=C(C1=C[C@@H](C2CCCCC2)C[C@@H](OCc2ccc(CO)cc2)O1)N1CCOCC1
  -1.4	1.6	0.5	-12.8	1.3	1.3	-3.4&1.0	-8.2	/	i
> CC1=NN(c2cc(Cl)c(S(=O)(=O)O)cc2Cl)C(=O)C1
  -2.1	/	3.3	18.0	/	/	3.5	14.0	0.669	/
> COc1ccc(CNC(=O)C(C)OC(=O)CN2C(=O)COc3ccccc32)cc1 (stereo not given)
  0.9	-3.4	1.0	1.7	0.8	2.8	5.3	6.6	0.642	i
> CC(=O)O[C@@H]1[C@@]2(C)O[C@H]2CC[C@]23O[C@H]2[C@H](OC3=O)C2=C(C)C(=O)O[C@@]21O
  11.8	2.1	1.8	7.2	2.7	-2.9	1.4	15.9	/	i
> COc1ccc(C(=O)Nc2ccccc2N2CCN(C(=O)C(C)C)CC2)cc1Cl
  4.0	14.3	3.1	-3.1	-0.1	-10.0	/	-15.4	0.714	/
> CC(C)(C)c1ccc(Cn2nnc3c(=O)[nH]c(C4CCN(C(=O)Cc5cccs5)CC4)nc32)cc1
  /	30.2	1.0	/	0.3	-8.9	/	/	0.654	/
> Cc1cc(NC(=O)CCC(=O)N(Cc2ccco2)C(C)(C)C(=O)NC2CCCCC2)no1
  /	-11.2	-0.3	/	0.2	-5.8	/	/	0.673	/
> O=C(COc1ccc(Cl)cc1)Nc1cnn(Cc2c(Cl)cccc2Cl)c1
  /	18.2	0.8	/	-0.1	-5.0	/	/	0.831	/
> Cc1cc(=O)[nH]c(SCC(=O)N2CCN(C(c3ccccc3)c3ccccc3)CC2)n1
  0.7	-6.5	-0.4	-2.4	0.3	-7.8	/	-13.1	0.772	/
> O=S(=O)(NCC(O)COCc1ccco1)c1cccs1 (stereo not given)
  /	-6.8	3.2	/	0.2	-0.8	/	/	0.704	/
> COc1ccc(OC)c(S(=O)(=O)Nc2ccccc2SC)c1
  /	-5.9	3.8	/	0.2	0.5	/	/	0.686	/
> O=C(CCc1ccncc1)NC1CCCc2c1cnn2-c1ccc(F)cc1F (stereo not given)
  -1.1	-7.8	4.5	4.7	-0.5	26.2	2.0	4.8	0.701	i
> COc1cccc(/C(O)=C2/C(=O)C(=O)N(CCN(C)C)C2c2ccc(Br)cc2)c1 (stereo not given)
  /	-8.1	10.7	/	0.5	-0.1	/	/	0.744	/
> CCOc1ccc(NS(=O)(=O)c2ccc(NC(C)=O)c(OC)c2)cc1
  4.4	-9.5	3.4	-5.6	0.4	-12.5	/	10.7	0.728	/
> Cc1ccc(CNC(=O)c2ccc3c(=O)n(CC4CCCO4)c(=S)[nH]c3c2)cc1 (stereo not given)
  /	-12.0	0.7	/	0.1	2.2	/	/	0.766	/
> O=c1cc(CCl)nc2sc3ccccc3n12
  5.0	61.2*	0.1	-5.6	-1.3	-11.1	1.4	3.1	0.675	/
> CC(C)(C)c1ccc(OCCCn2ccnc2)cc1
  -3.7	36.8	0.5	-29.4	1.3	15.0	7.0	-31.2	0.667	i
> O=C(/C=C/c1ccccc1)NCc1ccco1
  5.0	-5.5	0.9	17.3	0.0	-0.4	-0.3	4.7	0.694	i
> CC(=O)c1ccc(-n2c(=O)[nH]c(=O)c3c(N)c(C(=O)c4ccc(Cl)cc4)sc32)cc1
  15.9	15.2	1.8	9.1	-0.4	14.6	1.3	9.0	0.731	i
> CC(C)C[C@H](NC(=O)N1CCn2c1nc1ccccc12)C(=O)NCCc1ccccc1
  -4.1	4.2	1.6	-16.4	-1.1	-10.5	3.4	-28.3	0.714	i
> CC1(C)C(=O)OC(c2cccn2-c2ccc([N+](=O)[O-])cc2)C(C)(C)C1=O (stereo not given)
  /	-6.3	5.1	/	2.4	-1.2	/	/	0.663	/
> Cc1cccc2nc(COc3ccc4ccccc4c3Br)cn12
  6.5*	-6.1	/	-26.9*	-0.4	-4.7	4.7	-20.4*	/	i
> Nc1ccc2c3c(cccc13)CC2
  /	23.4	-165.2	/	-0.5	/	/	/	0.717	/
> Cc1ccccc1C(=O)N1c2ccccc2OCC1C(C)(C)C (stereo not given)
  3.1	7.6	5.5	-0.5	-0.3	-4.7	-1.8	-10.6	0.646	i
> CCn1c(SCc2nc3ccccc3[nH]2)nnc1-c1cnccn1
  /	-7.1	-1.2	/	0.5	1.5	/	/	0.735	/
> COc1ccc(COC(=O)c2ccc(Cl)c(S(=O)(=O)N3CC(C)OC(C)C3)c2)cc1 (stereo not given)
  0.0	8.9	-2.8	0.8	0.3	/	3.2	0.5	0.646	i
> Cc1ccc(C(=O)Nc2sc(C)c(C)c2C(=O)c2ccccc2)cc1
  /	7.5	4.3	/	0.0	1.9	/	/	0.731	/
> COc1ccc(-c2cn(Cc3cccc(OC)c3)nn2)cc1
  -7.7	-10.2	0.7	1.3	-0.6	1.0	-5.3	19.8	0.682	i
> CN(C(=O)c1cccc(Br)c1)C1CCS(=O)(=O)C1 (stereo not given)
  -1.5	-16.4	2.7	3.3	-0.5	-2.3	-16.7	6.8	0.667	i
> CC(C)(C)C1CCc2sc(C(=O)NNC(=O)CCl)cc2C1 (stereo not given)
  -20.1	67.2*	6.3	-46.0	/	/	-1.2	-72.0	0.69	i
> Cc1nn(C)c(C(=O)N/N=C/c2ccc(-c3ccccc3)cc2)c1Cl
  0.8	3.1	/	10.2	-0.1	-5.6	-1.0	14.5	/	i
> CC(C)(CN=C1NS(=O)(=O)c2ccccc21)CNC(=O)c1ccccc1
  -0.5	-0.6	-1.1	5.5	0.8	-0.5	-0.4	3.9	0.697	i
> C1CCN(c2nc3nonc3nc2N2CCCC2)C1
  /	-1.6	14.9	/	0.6	-9.7	/	/	0.705	/
> Cc1ccc(Cn2c(CN3CC(C)OC(C)C3)nc3c2c(=O)n(C)c(=O)n3C)cc1 (stereo not given)
  -0.6	6.6	2.6	-0.4	-1.5	-5.0	-9.2	-4.2	0.732	i
> CC1CCCCC1NC(=O)CCS(=O)(=O)c1cccc2nonc12 (stereo not given)
  /	0.9	3.8	/	-0.5	1.5	/	/	0.71	/

Screening results (PubChem BioAssay)

This is a subset; count on the stated rates, not on these rows.
